Sa RN4220 lethal: growth inhibition of S. aureus RN4220, primary screen, OD600; 330,000 compounds, 0.33% hits; inhibition, % (test concentration not listed); 16 h;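 active = z-score of -3 or lower and OD600 up to 0.18 on both plates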;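 note: plate controls were untreated cells for no effect and reference antibiotic for full effect; stock transfer was 100 nL into about 80 µL; one replicate is shown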
Mtb hypoxia inh: PubChem AID 1159583 | fluorescence inhibition, % (test concentration not listed) | M. tuberculosis hypoxia-regulated fluorescent reporter, fluorescence | 300,000 compounds, 0.1% hits;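 active = 35 to 45% if threefold the growth effect, above 45% if 1.5-fold the growth effect; inactive = the rest, general growth blockers included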;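 note: wells of about 50 µL received 100 nL stock; 0% = vehicle wells and 100% = reference inhibitor wells; whole bacteria with a GFP reporter of the hypoxia response; strong numbers were not always called active; many hits fall short of the cut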
BJeLR lethal: MLPCN primary cell-based screen for lethality selective to Ras in HRASV12 cells. BJeLR (HRASV12) viability, CellTiter-Glo ATP luminescence, 48 h; reference of the scale not given here. 300,000 compounds, 0.17% hits. AID 1554, 2009. inhibition, % (concentration not given with the values);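 active = replicate mean above 50%; inconclusive = above 50% but judged a plate artefact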;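 note: 50 nL library stock added to about 25 µL; numbers are from one replicate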
PrP UTR inh: inhibition of PrP 5' UTR reporter expression. cell-based PrP 5' UTR mRNA reporter, plate reader. inhibition, % (test concentration not listed). 340,000 compounds, 0.35% hits;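 active = every replicate at 50% or more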;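 note: 0 = median of the neutral control wells; tested in H4 reporter cells; numbers are from one replicate; inactives centre near -14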
ugtP null kill: growth inhibition of ugtP-null S. aureus, primary screen, RN4220 ugtP deletion, OD600; 16 h; some inactives read as strong as hits; growth inhibition, % (test concentration not listed); 330,000 compounds, 0.54% hits; AID 1259309, 2017;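 active = z-score under -3 and OD600 up to 0.15 on both plates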;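 note: plate controls were untreated wells for no effect and antibiotic for full effect; wells of about 80 µL received 100 nL stock; the first replicate is given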
Autofluor counter: flagged as autofluorescent in microsphere protease counterscreen; compound autofluorescence counterscreen, microsphere flow cytometry; stronger effect = higher value; fluorescence intensity (no concentration beside the values); 360,000 compounds, 3.1% hits; AID 624483;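 active = at least 3 SD above the mean of all compounds, about 16000 in these data; inconclusive = too few beads counted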;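 note: 100 nL of 1 mM stock went into each well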
Mtb hypoxia inh growth: recorded beside Mtb hypoxia inh, whose call it bears; growth inhibition, %; measured here: M. tuberculosis growth (absorbance);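 0% = vehicle and 100% = reference antibiotic; read after six days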
Active calls of the source: *; ? = inconclusive; · = not tested or not shown. An unsorted share of the library (roughly 4% active in at least one column).

SMILES	Sa RN4220 lethal	Mtb hypoxia inh	Mtb hypoxia inh growth	BJeLR lethal	PrP UTR inh	ugtP null kill	Autofluor counter
O=C(NCc1ccccc1)c1cccn(Cc2ccccc2)c1=O	2.0	15	13	9	-2	5	2900
CCCCCC(O)(c1ccccc1)C(CN1CCOCC1)c1ccccc1 (stereo not drawn)	6.1	5	-4	-1	-22	14	3938
Cc1noc(NS(=O)(=O)c2ccc(NC(=O)c3ccccc3NS(=O)(=O)c3ccc(F)c(F)c3)cc2)c1C	-1.7	12	8	·	-9	-1	3931
CC(=O)NC(CC(=O)OCC(=O)NCCc1ccccc1)c1ccccc1 (stereo not drawn)	2.5	-14	-7	3	-2	0	5790
CC(C)/C=N\NC(=O)CCCCC(=O)N/N=C/C(C)C	·	·	·	-2	-11	·	2509
O=C(CNC(=O)c1ccccc1Cl)NN=Cc1ccc([N+](=O)[O-])s1	12	-1	6	·	·	-3	·
CSc1nsc(SCC(=O)Nc2ccc(Br)cn2)n1	0.7	·	·	-1	-31	-3	4912
O=C(Nc1cccn(Cc2ccc(F)cc2)c1=O)NC1CCCCC1	-3.4	17	13	-1	-27	1	3701
Cc1ccc(C)c(-c2nnc(NC(=O)CCS(=O)(=O)c3ccccc3)o2)c1	3.6	0	7	1	-15	1	5561
Cc1cccc(N(C)C(=O)c2cc(S(=O)(=O)N3CCCC3)cn2C)c1	2.8	1	3	-4	-18	0	5579
CCc1nonc1NC(=O)c1oc2cc(Br)ccc2c1C	0.8	3	11	5	-6	-7	4237
COc1ccc(/C=C2/SC(=S)N(CCCC(=O)N3CCN(C)CC3)C2=O)cc1	4.3	1	-2	3	-1	42	6125
COc1ccc(C2C(C(C)=O)=C(O)C(=O)N2c2cccnc2)cc1OC (stereo not drawn)	6.0	16	15	2	-8	5	8534
CCc1nnc(NC(=O)c2csc3c2CCC(C)C3)s1 (stereo not drawn)	1.5	17	6	5	·	-2	·
CCCCN1CC[C@H]2C=CC[C@@H](C(=O)NCCc3ccccc3)[C@H]2C1=O	·	·	·	-7	-16	·	3816
Cc1cc(C(C)(C)C)cc(S(=O)(=O)NCCO)c1C	9.0	6	0	-5	-13	1	3255
CCN(CC)S(=O)(=O)c1ccc(/C(O)=C(\C#N)c2nc3ccccc3n2C)cc1	·	·	·	9	-34	·	8833
CCn1cc(CNC(=O)c2cc(-c3cc(OC)ccc3OC)nc3ccccc23)c(C)n1	0.1	8	8	4	-6	3	2397
COc1ccc(N2CCN(C(=O)CCc3c[nH]c4ccccc34)CC2)cc1	4.2	9	4	7	-28	3	4392
CCN(CC)CCN(C(=O)c1ccc(N2C(=O)CCC2=O)cc1)c1nc2cc3c(cc2s1)OCCO3	1.5	3	4	1	-34	9	4380
CC1(C)N=C(N)N=C(N)N1c1ccc(F)cc1F	1.1	·	·	0	-5	-3	2554
C=CCn1cnc2c(c1=O)c1nc3ccccc3nc1n2N=Cc1cccc(OC)c1OC	13	11	6	·	·	-16	·
CC1=C(C(=O)OC(C)C)C(c2ccc(Cl)cc2)n2c(sc(=Cc3ccc(OCC(=O)O)cc3)c2=O)=N1 (stereo not drawn)	21	3	0	·	·	17	3651
Cc1ccc(NC(=O)CCn2cccc2)cc1C	3.1	14	13	-12	-11	6	3089
COc1cccc(N2C(=O)CC(c3c[nH]c4ccccc34)C2=O)c1 (stereo not drawn)	-6.9	-9	-8	-2	-13	-3	4570

Next section:
SMILES	Sa RN4220 lethal	Mtb hypoxia inh	Mtb hypoxia inh growth	BJeLR lethal	PrP UTR inh	ugtP null kill	Autofluor counter
C=CCC1C=C(Cc2ccccc2)CC(CC=C)N1 (stereo not drawn)	1.6	9	5	7	-11	-3	4571
CC1CCCN(C(=O)COC(=O)C2CCN(S(=O)(=O)c3ccc4c(c3)OCCO4)CC2)C1 (stereo not drawn)	-7.2	-8	-3	-12	-9	-10	4432
COC(=O)C1=C(c2ccc(OC(F)(F)F)cc2)CC2CCC1N2C(=O)NC(C)C (stereo not drawn)	-6.4	0	4	·	·	-13	·
O=C(COCc1cc(-c2ccc3c(c2)OCO3)on1)Nc1cccnc1	1.4	18	16	-6	-16	3	5325
Cc1sc2nc(C3CC3)nc(N3CCN(C(=O)c4ccc(F)cc4)CC3)c2c1C	-8.4	-3	9	-9	-14	25	5733
CN(C(=O)c1ccccc1C(=O)OCC(=O)NCc1ccccc1)C1CCCCC1	1.4	4	3	-6	-17	5	2529
CC/C(=C1/C(=O)CC(C)(C)C(C(=O)OC)C1=O)N1CCCC1 (stereo not drawn)	-3.6	-1	-1	-3	-4	7	2439
Cc1ccc(C(=O)Nc2ccc3c(c2)OCO3)cc1S(=O)(=O)N1CCCCC1	3.9	1	9	10	-31	-9	2323
CCC(=NCCCN1CCOCC1)c1c(O)n(Cc2ccccc2)c(=O)[nH]c1=O	5.7	-2	10	-1	-13	-14	19516*
CCOc1ccc(NC(=O)CN(C)C(=O)c2cc(C3CC3)nn2-c2ccccc2)cc1OCC	4.2	14	4	·	-8	3	?
Cc1cccc(NC(=O)c2nc[nH]c2C(=O)NC(C)C(=O)OCc2ccccc2)c1 (stereo not drawn)	-5.3	8	8	·	·	27	·
CC1(C(=O)O)CCC(C(=O)Nc2ccccc2O)C1(C)C (stereo not drawn)	4.4	1	-3	0	-14	9	?
CCOC(=O)c1ccccc1OCc1cc(C=NNC(=O)c2cccnc2)ccc1OC	0.9	1	12	·	·	-3	·
COc1cccc(-c2cc(=O)c3cc(NC(C)=O)ccc3[nH]2)c1	-13	8	5	-3	-2	0	2979
Cc1ccc(O)c(C2=NNC(O)(C(F)(F)F)C2)c1 (stereo not drawn)	·	·	·	4	2	·	2349
CCOC(=O)/C(=C\C=C\c1ccccc1)NC(=O)c1ccccc1	4.1	8	9	-8	-33	3	2098
CC(=O)Nc1ccc(S(=O)(=O)/N=C2/NC(=O)/C(=C\c3ccco3)S2)cc1	5.4	7	14	7	1	4	3554
COc1ccc(NC(=S)NNS(=O)(=O)c2ccc3ccccc3c2)c(OC)c1	11	5	7	1	-33	-5	4604
Cc1ccc(C(=O)Nc2ccc(Nc3ccccc3)cc2)cc1Br	0.8	-1	-6	-1	·	6	6094
Cc1ccccc1NC(=O)Cc1nc(COC(=O)c2cccc(O)c2)cs1	-0.9	-1	7	·	3	2	6024
COc1ccc(C2CC(=O)C(C=NCCCN3CCOCC3)=C(O)C2)cc1 (stereo not drawn)	3.0	·	·	-4	-14	0	4178
Cc1cc(=O)[nH]c(NN=Cc2ccc([N+](=O)[O-])cc2)n1	6.4	9	7	·	·	3	·
Cc1ccc(CNC(=O)CSCc2cccc(F)c2)cc1	4.0	11	-2	1	-35	2	4110
COCCN(CC1CCCN(C2Cc3ccccc3C2)C1)C(=O)CCSC (stereo not drawn)	3.0	-7	6	-10	-5	0	3998
CCCC(=O)Nc1ccc2nc(C)n(Cc3ccccc3Cl)c(=O)c2c1	1.7	1	-6	-11	-16	11	4150

Remaining list, next part
SMILES	Sa RN4220 lethal	Mtb hypoxia inh	Mtb hypoxia inh growth	BJeLR lethal	PrP UTR inh	ugtP null kill	Autofluor counter
CC(Oc1ccc(Cl)cc1)C(=O)Nc1sccc1C(N)=O (stereo not drawn)	6.5	10	9	-1	-25	1	3939
CCCn1nnc(NC(=O)c2ccc(F)cc2)n1	0.5	·	·	-1	-25	11	4292
CC1CN(S(=O)(=O)c2cccc(-c3cn4ccccc4n3)c2)CC(C)O1 (stereo not drawn)	-4.8	0	5	4	-1	-24	8848
O=C(CN1CCOCCOCCOCC1)Nc1ccccc1	-0.6	-4	5	16	-8	-10	9602
COc1cc(CNCC2CCCO2)ccc1OCC(N)=O (stereo not drawn)	2.9	4	1	-6	-30	6	3206
O=C(NCCCn1ccnc1)C1CCN(S(=O)(=O)c2ccc(F)cc2)CC1	0.4	16	-8	-11	-30	4	3161
CCN(CC)C(=O)CSc1nc2nc(C)cc(C)c2c(=O)[nH]1	-3.6	14	5	-9	-3	9	4263
CCN(C(=O)COC(=O)CCC(=O)c1cccs1)C1CCCCC1	1.3	-4	0	·	-31	2	4119
O=C(CNC(=O)c1ccco1)Nc1ccc(OC(F)F)cc1	-2.0	5	-3	-6	7	0	3580
CCCn1c(SC(C)C(=O)NCC2CCCO2)nc2sc3c(c2c1=O)CCC3 (stereo not drawn)	0.8	7	-6	8	-10	-4	4702
CCCn1c(C(C)NS(=O)(=O)c2ccccc2)n[nH]c1=S (stereo not drawn)	2.9	8	1	2	-12	6	6218
CCC(C)=NNC(=O)CNC(=O)c1ccc(Cl)cc1Cl	2.8	-7	7	·	·	1	·
C=C1C(=O)C=C[C@]2(C)C[C@@H]3OC(=O)[C@](C)(O)[C@H]3C[C@@H]12	·	·	·	28	-27	·	3564
Cc1c(NC2=CC(=O)CCC2)c(=O)n(-c2ccccc2)n1C	3.7	5	4	9	-6	7	4291
COc1ccccc1C(NC(=O)CC(C)C)c1c(O)ccc2ccccc12 (stereo not drawn)	-5.1	3	-5	-1	-9	2	4211
CCOc1ccccc1-n1c(SCC(=O)N(C(C)C)C(C)C)nnc1-c1cccnc1	4.9	·	·	8	-1	8	3167
CC(=O)Nc1ccc2c(O)cc(S(=O)(=O)O)cc2c1	-2.1	-3	-3	·	-15	-6	2900
O=C(/C=C/c1cccc([N+](=O)[O-])c1)NCCc1ccc(F)cc1	0.6	4	3	-3	-12	-2	2023
Cc1ccc2c(CN3CCCCC3)cc(=O)oc2c1	1.4	10	8	12	-22	4	4061
O=C(NNC(=O)c1cc(Cl)ccc1O)c1ccc(NS(=O)(=O)c2cccs2)cc1	17	-1	-3	4	-16	-6	·
Cc1nn(C(C)C(=O)NN=Cc2ccc(N(C)C)cc2)c(C)c1[N+](=O)[O-] (stereo not drawn)	1.0	-5	6	·	·	-2	·
CC(=O)Nc1ccc(OC(=O)c2cc3cc(Br)cc(Br)c3oc2=O)cc1	6.2	1	-2	0	·	-3	·
CCN(C[C@H]1N[C@@](CC)(C(=O)OC)[C@H]2C(=O)N(Cc3ccccc3)C(=O)[C@@H]12)C(=O)c1ccc(C(C)(C)C)cc1	1.1	-1	-2	·	6	0	3560
COc1ccc(C(=O)NCC(=O)OCc2cccc(Br)c2)cc1	3.7	20	7	-3	-24	0	10627

In the list so far, these have a CF3 group:
SMILES	Sa RN4220 lethal	Mtb hypoxia inh	Mtb hypoxia inh growth	BJeLR lethal	PrP UTR inh	ugtP null kill	Autofluor counter
COC(=O)C1=C(c2ccc(OC(F)(F)F)cc2)CC2CCC1N2C(=O)NC(C)C (stereo not drawn)	-6.4	0	4	·	·	-13	·
Cc1ccc(O)c(C2=NNC(O)(C(F)(F)F)C2)c1 (stereo not drawn)	·	·	·	4	2	·	2349

By substructure: those above with an aryl methoxy group
SMILES	Sa RN4220 lethal	Mtb hypoxia inh	Mtb hypoxia inh growth	BJeLR lethal	PrP UTR inh	ugtP null kill	Autofluor counter
COc1ccc(/C=C2/SC(=S)N(CCCC(=O)N3CCN(C)CC3)C2=O)cc1	4.3	1	-2	3	-1	42	6125
COc1ccc(C2C(C(C)=O)=C(O)C(=O)N2c2cccnc2)cc1OC (stereo not drawn)	6.0	16	15	2	-8	5	8534
CCn1cc(CNC(=O)c2cc(-c3cc(OC)ccc3OC)nc3ccccc23)c(C)n1	0.1	8	8	4	-6	3	2397
COc1ccc(N2CCN(C(=O)CCc3c[nH]c4ccccc34)CC2)cc1	4.2	9	4	7	-28	3	4392
C=CCn1cnc2c(c1=O)c1nc3ccccc3nc1n2N=Cc1cccc(OC)c1OC	13	11	6	·	·	-16	·
COc1cccc(N2C(=O)CC(c3c[nH]c4ccccc34)C2=O)c1 (stereo not drawn)	-6.9	-9	-8	-2	-13	-3	4570
CCOC(=O)c1ccccc1OCc1cc(C=NNC(=O)c2cccnc2)ccc1OC	0.9	1	12	·	·	-3	·
COc1cccc(-c2cc(=O)c3cc(NC(C)=O)ccc3[nH]2)c1	-13	8	5	-3	-2	0	2979
COc1ccc(NC(=S)NNS(=O)(=O)c2ccc3ccccc3c2)c(OC)c1	11	5	7	1	-33	-5	4604
COc1ccc(C2CC(=O)C(C=NCCCN3CCOCC3)=C(O)C2)cc1 (stereo not drawn)	3.0	·	·	-4	-14	0	4178
COc1cc(CNCC2CCCO2)ccc1OCC(N)=O (stereo not drawn)	2.9	4	1	-6	-30	6	3206
COc1ccccc1C(NC(=O)CC(C)C)c1c(O)ccc2ccccc12 (stereo not drawn)	-5.1	3	-5	-1	-9	2	4211
COc1ccc(C(=O)NCC(=O)OCc2cccc(Br)c2)cc1	3.7	20	7	-3	-24	0	10627
